Mtb MenB inh = inhibitors of Mycobacterium tuberculosis MenB enzyme; P9WNP5; MenB enzyme assay, absorbance read-out; some hits fall short of the stated cut; inhibition, %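 (about 12 µg/mL by stock and volumes)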; 100,000 tested, 0.43% active; AID 540299;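 active means mean of two replicates above 30%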;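 further: 0% = no compound and 100% = wells with inactive enzyme; the first replicate is given; strong numbers were not always called active; inactives centre near -10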
Target sequence (P9WNP5 whole entry, looked up): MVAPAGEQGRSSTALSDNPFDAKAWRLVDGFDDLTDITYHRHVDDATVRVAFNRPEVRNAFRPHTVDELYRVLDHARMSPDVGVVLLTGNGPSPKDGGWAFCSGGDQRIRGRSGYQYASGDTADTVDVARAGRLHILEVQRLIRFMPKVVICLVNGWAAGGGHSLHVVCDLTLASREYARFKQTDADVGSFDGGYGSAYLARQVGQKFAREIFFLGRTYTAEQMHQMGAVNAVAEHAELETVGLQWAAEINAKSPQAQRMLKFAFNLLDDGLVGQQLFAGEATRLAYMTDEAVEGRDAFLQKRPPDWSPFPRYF
Mtb MbtI inh = MbtI salicylate synthase inhibition. P9WFX0. purified MbtI enzyme, fluorescence intensity read-out. inhibition, %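 (about 17 µg/mL by stock and volumes)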. 100,000 tested, 0.89% active;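 active means above 50% in both replicates, above 80% if mildly self-fluorescent; inactive means the rest, strongly fluorescent compounds included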;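 further: 0% = mean of negative and 100% = mean of positive controls; one replicate is shown; some compounds called inactive have numbers as strong as hits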
PV pol inh = inhibitors of poliovirus RNA polymerase binding and polymerization; poliovirus polymerase elongation, fluorescence polarization; active compounds read low; P03300; 150,000 tested, 0.66% active; % elongation, % (compound at 16.7 µg/mL); in the data active means % elongation below about 90%; further: some results filed as inactive read as strong as hits
Target sequence (P03300 1749-2209 limits assumed): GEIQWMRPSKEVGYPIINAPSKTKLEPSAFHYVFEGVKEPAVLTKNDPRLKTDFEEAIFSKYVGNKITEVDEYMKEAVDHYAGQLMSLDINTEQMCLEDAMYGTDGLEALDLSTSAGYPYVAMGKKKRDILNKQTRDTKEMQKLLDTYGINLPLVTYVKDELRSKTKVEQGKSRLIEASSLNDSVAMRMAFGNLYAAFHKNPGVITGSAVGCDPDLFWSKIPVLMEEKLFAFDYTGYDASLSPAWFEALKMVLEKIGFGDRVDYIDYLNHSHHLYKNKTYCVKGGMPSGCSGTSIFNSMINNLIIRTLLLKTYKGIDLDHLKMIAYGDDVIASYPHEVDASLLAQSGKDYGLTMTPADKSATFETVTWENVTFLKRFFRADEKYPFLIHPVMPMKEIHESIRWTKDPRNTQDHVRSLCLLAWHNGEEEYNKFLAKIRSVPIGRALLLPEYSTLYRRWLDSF
PV pol inh intensity = also measured in PV pol inh; calls as there; % elongation; measured here: total intensity read-out; formula for this scale not given here;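 total fluorescence in place of polarization; lower means less elongation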
* marks the source's active call; other numbers are inactive results.

For COc1cc(C2OCC3C(C)C=C(C)C2C3C)ccc1O (configuration not stated) the results were Mtb MenB inh -19, PV pol inh 98 and PV pol inh intensity 92.
Screening O=C(O)CSc1nnc(COc2ccc(Cl)cc2)n1-c1ccc(Br)cc1 returned Mtb MenB inh -31, PV pol inh 101 and PV pol inh intensity 105.
Screening O=c1[nH]c(-c2ccccc2)cs1 returned Mtb MenB inh 11, Mtb MbtI inh 4, PV pol inh 102 and PV pol inh intensity 102.
For COC(=O)c1ccc(CSc2nc3scc(-c4cccs4)c3c(=O)[nH]2)o1 the results were Mtb MenB inh -11, Mtb MbtI inh 24, PV pol inh 109 and PV pol inh intensity 112.
For O=C(NCC(=O)N1CCc2ccccc21)c1cccc(Cl)c1 the results were Mtb MbtI inh -14, PV pol inh 103 and PV pol inh intensity 107.
Screening N#Cc1cc2c(nc1SCC(=O)O)CCC2 returned Mtb MenB inh 6, PV pol inh 108 and PV pol inh intensity 101.
For COc1ccc(CN2C(=O)C3C4C=CC(C4)C3C2=O)cc1 (configuration not stated) the results were Mtb MenB inh -3, Mtb MbtI inh 2, PV pol inh 101 and PV pol inh intensity 104.
`S=c1[nH]cc2ccccn12` gave Mtb MenB inh -20, Mtb MbtI inh 59, PV pol inh 113 and PV pol inh intensity 120.
For O=C1CC(c2ccccc2)CC(O)=C1C=NCc1ccncc1 (configuration not stated) the results were Mtb MenB inh -14, Mtb MbtI inh -6, PV pol inh 101 and PV pol inh intensity 105.
`CC1CN(C(=O)COC(=O)c2c(F)cccc2F)CC(C)O1` (configuration not stated) gave Mtb MenB inh -15, Mtb MbtI inh -6, PV pol inh 96 and PV pol inh intensity 90.
For COc1ccccc1N1CCN(S(=O)(=O)c2cccc3nsnc23)CC1 the results were Mtb MenB inh -75, Mtb MbtI inh -7, PV pol inh 105 and PV pol inh intensity 102.
For Cc1nnc2ccc(-c3ccc(NC(=O)c4ccc5c(c4)OCO5)cc3)nn12 the results were Mtb MenB inh -18, Mtb MbtI inh 3, PV pol inh 105 and PV pol inh intensity 106.
CCCN1C(=O)c2ccccc2NC1c1ccc(OC)c(OC)c1 (configuration not stated) was read as Mtb MenB inh -12, Mtb MbtI inh 107, PV pol inh 103 and PV pol inh intensity 107.
`Nc1cc(=O)nc(SCCC(=O)O)n1-c1ccccc1` gave Mtb MenB inh 2, Mtb MbtI inh 0, PV pol inh 101 and PV pol inh intensity 104.
`Nc1ccc(C(=O)O)cc1` gave Mtb MenB inh 6, Mtb MbtI inh -10, PV pol inh 99 and PV pol inh intensity 101.
For Cc1cc(/C=C(\C#N)C(=O)O)c(C)n1CC1CCCO1 (configuration not stated) the results were Mtb MenB inh -6, Mtb MbtI inh -2, PV pol inh 101 and PV pol inh intensity 106.
Screening Cc1cc(N=CNc2ccc(Br)c(C)c2)ccc1Br returned Mtb MenB inh -22, PV pol inh 106 and PV pol inh intensity 112.
O=C(O)CCC(=O)N1CCN(C(c2ccccc2)c2ccccc2)CC1 was read as Mtb MenB inh -3, Mtb MbtI inh -16, PV pol inh 102 and PV pol inh intensity 106.
For COc1ccc(-c2c(-c3ccc(OC)cc3)n(Cc3ccc(F)cc3)c3nc[nH]c(=O)c23)cc1 the results were Mtb MenB inh -8, Mtb MbtI inh 108, PV pol inh 102 and PV pol inh intensity 106.
O=C(CCSc1nnnn1-c1ccccc1)c1ccc(F)cc1 was read as Mtb MenB inh -14, Mtb MbtI inh -11, PV pol inh 103 and PV pol inh intensity 107.
For Cc1cc(=O)oc2c3c(ccc12)OC(=O)/C3=C\c1ccccc1 the results were Mtb MenB inh -23, PV pol inh 103 and PV pol inh intensity 103.
For COc1ccc(C(=O)OCC(=O)N(C)Cc2ccccc2)cc1 the results were Mtb MbtI inh -2, PV pol inh 101 and PV pol inh intensity 100.
`CNC(Cc1c[nH]c2ccccc12)C(=O)O` (configuration not stated) gave Mtb MenB inh 2, Mtb MbtI inh -18, PV pol inh 102 and PV pol inh intensity 99.
Screening c1ccc(Sc2ncnc3c2oc2ccccc23)nc1 returned Mtb MenB inh -13, PV pol inh 98 and PV pol inh intensity 105.
`Cc1c(C)c(C)c(CSC2CC(=O)N(c3ccccc3)C2=O)c(C)c1C` (configuration not stated) gave Mtb MenB inh -16, Mtb MbtI inh -5, PV pol inh 99 and PV pol inh intensity 101.
`CCCCN(CC)c1nc(C(=O)OCC)nc2ccccc12` gave Mtb MenB inh -11, Mtb MbtI inh 3, PV pol inh 100 and PV pol inh intensity 101.
Screening Cc1ccc(-c2c(C#N)c(SCC(=O)c3ccc(F)cc3)nc3c2CCCC3)o1 returned Mtb MenB inh 15, PV pol inh 102 and PV pol inh intensity 103.
For Cn1ncc2c(NNC(=O)C3CCCCC3)ncnc21 the results were Mtb MenB inh -2, Mtb MbtI inh -11, PV pol inh 100 and PV pol inh intensity 102.
`Cc1cccc(NS(=O)(=O)c2ccccc2)n1` gave Mtb MenB inh 3, Mtb MbtI inh inactive, PV pol inh 100 and PV pol inh intensity 102.
For CCOc1ccc(C=Nc2ccc3c(c2)ncn3C)cc1 the results were Mtb MenB inh 6, Mtb MbtI inh -141, PV pol inh 102 and PV pol inh intensity 105.
O=C1Cn2c(nc3ccccc3c2=O)CN1Cc1ccc(Cl)cc1Cl was read as Mtb MenB inh -31, Mtb MbtI inh 3, PV pol inh 105 and PV pol inh intensity 100.
For Cc1cc(C)c2c(CC(=O)N3CCCC3)coc2c1 the results were Mtb MenB inh 1, Mtb MbtI inh -3, PV pol inh 99 and PV pol inh intensity 101.
For Cc1cc(C)n(CC(=O)NCc2ccccc2)c(=O)c1C#N the results were Mtb MenB inh -37, Mtb MbtI inh 41, PV pol inh 103 and PV pol inh intensity 105.
For Cc1ccc(C)n1-c1ncn[nH]1 the results were Mtb MenB inh -12, Mtb MbtI inh 0, PV pol inh 105 and PV pol inh intensity 110.
`C=CC[C@@H]1/C=C(\C)C[C@H](C)C[C@H](OC)[C@H]2O[C@@](O)(C(=O)C(=O)N3CCCCC3C(=O)O[C@H](/C(C)=C/[C@@H]3CC[C@@H](O)[C@H](OC)C3)[C@H](C)[C@@H](O)CC1=O)[C@H](C)C[C@@H]2OC` (some centres not stated) gave Mtb MenB inh -15, PV pol inh 102 and PV pol inh intensity 100.
`CCc1nnc(NC(=O)C2CC2)s1` gave Mtb MbtI inh -11, PV pol inh 104 and PV pol inh intensity 105.
CCn1nnnc1SCC(N)=O was read as Mtb MenB inh -48, Mtb MbtI inh -4, PV pol inh 106 and PV pol inh intensity 100.
`C(=N\n1c(-c2ccco2)csc1=NC1CCCCC1)/c1ccccn1` gave Mtb MenB inh -138, Mtb MbtI inh 21, PV pol inh 88 and PV pol inh intensity 121.
Screening CCOC(=O)c1c(C)[nH]c(C)c1C(=O)CSc1nnc(C(F)(F)F)n1N returned Mtb MenB inh -19, Mtb MbtI inh 2, PV pol inh 101 and PV pol inh intensity 97.
Screening Cn1cccc1/C=C1\CS/C(=C\c2cccn2C)C1=O returned Mtb MenB inh -30, Mtb MbtI inh 11, PV pol inh 108 and PV pol inh intensity 115.

Grouped by structure, the entries above containing a cyano group (four)
Screening N#Cc1cc2c(nc1SCC(=O)O)CCC2 returned Mtb MenB inh 6, PV pol inh 108 and PV pol inh intensity 101.
For Cc1cc(/C=C(\C#N)C(=O)O)c(C)n1CC1CCCO1 (configuration not stated) the results were Mtb MenB inh -6, Mtb MbtI inh -2, PV pol inh 101 and PV pol inh intensity 106.
Screening Cc1ccc(-c2c(C#N)c(SCC(=O)c3ccc(F)cc3)nc3c2CCCC3)o1 returned Mtb MenB inh 15, PV pol inh 102 and PV pol inh intensity 103.
For Cc1cc(C)n(CC(=O)NCc2ccccc2)c(=O)c1C#N the results were Mtb MenB inh -37, Mtb MbtI inh 41, PV pol inh 103 and PV pol inh intensity 105.

Returning to the listing with the three entries that preceded the break.
`C(=N\n1c(-c2ccco2)csc1=NC1CCCCC1)/c1ccccn1` gave Mtb MenB inh -138, Mtb MbtI inh 21, PV pol inh 88 and PV pol inh intensity 121.
Screening CCOC(=O)c1c(C)[nH]c(C)c1C(=O)CSc1nnc(C(F)(F)F)n1N returned Mtb MenB inh -19, Mtb MbtI inh 2, PV pol inh 101 and PV pol inh intensity 97.
Screening Cn1cccc1/C=C1\CS/C(=C\c2cccn2C)C1=O returned Mtb MenB inh -30, Mtb MbtI inh 11, PV pol inh 108 and PV pol inh intensity 115.
For COc1ccccc1NC(=S)N1CCN(C2CCCCC2)CC1 the results were Mtb MenB inh -6, Mtb MbtI inh -1, PV pol inh 99 and PV pol inh intensity 102.
Screening CCCCOc1ccc(S(N)(=O)=O)cc1 returned Mtb MenB inh -11, Mtb MbtI inh 1, PV pol inh 98 and PV pol inh intensity 92.
Screening COc1ccccc1CC(=O)Nc1cccc(C)n1 returned Mtb MenB inh 40*, Mtb MbtI inh 1, PV pol inh 100 and PV pol inh intensity 101.
Cc1ccc2c(c1)c1c3c(nccn32)CCC1 was read as Mtb MenB inh -28, Mtb MbtI inh 14, PV pol inh 75 and PV pol inh intensity 144.
Screening O=C1NCCCN1Cc1ccc(Cl)cc1 returned Mtb MenB inh -15, Mtb MbtI inh -5, PV pol inh 103 and PV pol inh intensity 100.
CCOC(=O)c1c(-c2ccccc2)oc2ccc(O)c(CSCC(=O)Nc3ccccc3)c12 was read as Mtb MenB inh -37, Mtb MbtI inh 39, PV pol inh 103 and PV pol inh intensity 96.
`CCC(C(=O)NC1CCCC1)N(C(=O)Cn1nnc(-c2ccc(C)cc2)n1)c1ccc2c(c1)OCCO2` (configuration not stated) gave Mtb MenB inh 33*, Mtb MbtI inh 7, PV pol inh 101 and PV pol inh intensity 102.
Screening Cc1c(F)cccc1NC(=O)CCCCCC1NC(=O)NC1C (configuration not stated) returned Mtb MenB inh -42, Mtb MbtI inh -2, PV pol inh 101 and PV pol inh intensity 99.
`NC(N)=NN=C1CCC(c2ccccc2)CC1` (configuration not stated) gave Mtb MenB inh 3, Mtb MbtI inh 1, PV pol inh 99 and PV pol inh intensity 99.
`O=S(=O)(NCCCCN1CCN(c2ncccc2C(F)(F)F)CC1)c1ccc(Cl)cc1` gave Mtb MenB inh -11, Mtb MbtI inh -6, PV pol inh 102 and PV pol inh intensity 104.
Cc1cc(-c2nnc(-c3ccc(C(F)(F)F)cn3)o2)no1 was read as Mtb MenB inh 14, Mtb MbtI inh -8, PV pol inh 101 and PV pol inh intensity 104.
CCN(CC)C(=O)c1sc2nc3c(cc2c1N)CN(C)CC3 was read as Mtb MenB inh -35, Mtb MbtI inh 4, PV pol inh 100 and PV pol inh intensity 103.
CC(C)C1=NN2C(=N)CC(=O)N=C2S1 was read as Mtb MenB inh -37, Mtb MbtI inh -1, PV pol inh 100 and PV pol inh intensity 99.
Screening COCc1nnc(NC(C)=O)s1 returned Mtb MenB inh 16, Mtb MbtI inh -8, PV pol inh 101 and PV pol inh intensity 101.
CCOC(=O)c1cnc2c(C(F)(F)F)cccc2c1N1CCOCC1 was read as Mtb MenB inh -25, Mtb MbtI inh -9, PV pol inh 101 and PV pol inh intensity 103.
NCCOc1ccccc1Cc1ccccc1 was read as Mtb MenB inh -1, PV pol inh 101 and PV pol inh intensity 99.
For Cc1ccc(NC(=O)c2ccccc2S(C)(=O)=O)cc1 the results were Mtb MenB inh -8, Mtb MbtI inh -2, PV pol inh 106 and PV pol inh intensity 107.
CC(=O)NCc1ccc(C(=O)CSc2nnc(-c3cccc(F)c3)n2N)o1 was read as Mtb MenB inh 1, Mtb MbtI inh 19, PV pol inh 102 and PV pol inh intensity 106.
For CN(C)c1ccc(/C=C2\C(=O)N(c3ccccc3)N=C2C(=O)Nc2ccccc2)cc1 the results were Mtb MenB inh -13, PV pol inh 106 and PV pol inh intensity 112.
Cc1ccsc1C(=O)OCC(=O)c1ccc2c(c1)OCCO2 was read as Mtb MenB inh -21, Mtb MbtI inh 10, PV pol inh 102 and PV pol inh intensity 106.
Screening Nc1ccc(C(=O)OCC(=O)Nc2ccc(Br)cc2Br)cc1 returned Mtb MbtI inh -9, PV pol inh 104 and PV pol inh intensity 104.
Cc1cc(-c2noc(-c3cc(C)on3)n2)no1 was read as Mtb MenB inh -11, Mtb MbtI inh -8, PV pol inh 105 and PV pol inh intensity 107.
For CCSc1ccsc1C1C(C#N)=C(N)N(c2cccnc2)C2=C1C(=O)CC(C)(C)C2 (configuration not stated) the results were Mtb MenB inh -3, Mtb MbtI inh -1, PV pol inh 105 and PV pol inh intensity 109.
COc1ccc(-c2noc(COC(=O)c3c4ccccc4cc4ccccc34)n2)c(OC)c1 was read as Mtb MenB inh -19, Mtb MbtI inh -114, PV pol inh 102 and PV pol inh intensity 102.
